ALR H2O2 inh: inhibitors of human ALR sulfhydryl oxidase, primary screen, biochemical, H2O2 detection, HRP-luminol luminescence, single point; FAD-linked sulfhydryl oxidase ALR (Homo sapiens), P55789; purified ALR, DTT oxidation; inhibition, % (test concentration not listed); 290,000 tested, 3.8% active; AID 485317, 2010;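 active = mean and each replicate at 75% or more; inconclusive = only one of the two met; inactive = neither met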;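 note: stock transfer was 7.5 nL into about 7.5 µL; 0% = neutral wells and 100% = wells with inactivated enzyme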
Target sequence (P55789 whole entry, looked up): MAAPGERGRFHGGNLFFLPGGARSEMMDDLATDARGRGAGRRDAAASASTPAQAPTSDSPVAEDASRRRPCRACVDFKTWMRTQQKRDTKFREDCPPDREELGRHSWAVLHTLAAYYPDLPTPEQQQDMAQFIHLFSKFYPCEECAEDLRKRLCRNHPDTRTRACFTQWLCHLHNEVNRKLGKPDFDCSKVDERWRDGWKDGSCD
Beta apoptosis: inhibitors of cytokine-induced beta cell apoptosis, primary screen, luminescence. INS-1E cytokine-induced death, ATP luminescence, 48 h; percent of positive-control rescue, neutral wells zero. protection from apoptosis, % (test concentration not listed). 300,000 tested, 0.8% active. AID 435005, 2010;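 active = all replicates at 75% or more, or half of them and the mean; inconclusive = half reach 75% but not the mean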;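 note: 0% = cytokine-treated negative control wells and 100% = positive control rescue; higher means more ATP so stronger rescue from cytokine killing; wells of about 40 µL received 100 nL stock; the first replicate is given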
T cruzi inh: inhibitors of intracellular T. cruzi growth, primary screen, luminescence, NIH3T3 host cells; T. cruzi beta-gal in NIH3T3, 90 h; inhibition, % (test concentration not listed); 300,000 tested, 1.4% active; AID 1885, 2009;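 active = mean inhibition across valid replicates above about 55%, limit read from the data; inconclusive = mean below that limit but half or more replicates reach it; inactive = mean below it, under half of replicates reach it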;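 note: signal also drops with host cell toxicity which is not excluded here; 0% = plate median of DMSO wells and 100% = zero luminescence signal; higher percent means less beta-gal luminescence so fewer parasites; stock transfer was 50 nL into about 50 µL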
Calb FLC: C. albicans growth inhibition with fluconazole, primary screen, CaCi-2 strain, Alamar Blue fluorescence; C. albicans CaCi-2 (fluconazole-resistant clinical isolate) + fluconazole, 48 h; AID 1979, 2009; 300,000 tested, 0.57% active; growth inhibition, % (test concentration not listed);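 active = most replicates above 75%; inconclusive = exactly half above 75%; inactive = most below 75%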;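 note: all wells also contain fluconazole at 8 µg/ml as a sub-toxic cotreatment; 0% = median of DMSO wells and 100% = median of geldanamycin control wells; wells of about 8 µL received 7.5 nL stock; the first replicate is given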
rRNA inh HTS: reduced GFP signal of wild-type E. coli, primary screen, bacterial rRNA inhibitor project, GFP/RFP fluorescence, OD600, single point; AID 720706, 2013; 350,000 tested, 1.6% active; E. coli WT GFP vs humanized-ribosome RFP mutants, 24 h; stronger effect = lower value; DMSO median 0, no signal -100; GFP signal change (wild-type ribosome), % (concentration not given with the values);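 active = significant combined selectivity score with lowered wild-type GFP, culture density cut under 30%, mutant RFP and density less affected; inactive = any of these conditions unmet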; note: one replicate is shown; some compounds called inactive have numbers as strong as hits
AF4-AF9 inh: inhibitors of AF4 peptide binding to AF9, primary screen, biochemical, AlphaScreen, biotin-AF4 peptide, FLAG-AF9, single point; Protein AF-9 (Homo sapiens), P42568; inhibition, % at 10 µM; 350,000 tested, 0.47% active;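 active = every replicate reaching a set inhibition limit, whatever the replicate mean, cut at about 25% in these data; inconclusive = mean inhibition reaches that limit but some replicates miss it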;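 note: 0% = plate neutral control median and 100% = total signal loss; the record names both 10 and 1 µM as test concentration; the first replicate is given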
Target sequence (P42568 whole entry, looked up): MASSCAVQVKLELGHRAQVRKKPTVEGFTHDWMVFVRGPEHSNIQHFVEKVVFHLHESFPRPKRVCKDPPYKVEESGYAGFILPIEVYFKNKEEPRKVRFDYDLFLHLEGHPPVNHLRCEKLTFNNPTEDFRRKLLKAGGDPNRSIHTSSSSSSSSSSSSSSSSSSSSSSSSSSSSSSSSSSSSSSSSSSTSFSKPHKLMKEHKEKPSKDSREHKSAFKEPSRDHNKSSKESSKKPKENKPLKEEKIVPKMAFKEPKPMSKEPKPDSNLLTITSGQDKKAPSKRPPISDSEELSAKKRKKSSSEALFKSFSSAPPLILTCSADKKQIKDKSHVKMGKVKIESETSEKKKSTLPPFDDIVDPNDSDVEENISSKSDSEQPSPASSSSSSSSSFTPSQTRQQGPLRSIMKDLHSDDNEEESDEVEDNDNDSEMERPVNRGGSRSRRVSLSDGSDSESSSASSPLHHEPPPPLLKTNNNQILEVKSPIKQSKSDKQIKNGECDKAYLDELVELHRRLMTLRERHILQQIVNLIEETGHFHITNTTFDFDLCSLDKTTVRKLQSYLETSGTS
RanGTP-Imp inh: inhibitors of RanGTP-importin-beta interaction, primary screen, biochemical, FRET, CFP-Ran, YFP-importin-beta, homogeneous | cell-free CFP-Ran/YFP-importin-beta FRET ratio | inhibition, % (no concentration beside the values) | 300,000 tested, 1.1% active | AID 2216, 2009;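 active = most replicates above 15%; inconclusive = exactly half above 15%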;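 note: 0% = DMSO wells and 100% = Ran loaded with GDP instead of GTP; wells of about 40 µL received 100 nL stock; the first replicate is given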
FGF22 binding: binders of human FGF22 protein, primary screen, FGF22 synaptogenesis inhibitor project, biophysical, thermal shift, single point | calls only at 9.99 µM | 340,000 tested, 1.5% active | recombinant FGF22 thermal shift, SYPRO orange fluorescence; percent of sucrose octasulfate shift, DMSO zero | AID 651658, 2012 | Fibroblast growth factor 22 (Homo sapiens), Q9HCT0;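 active = melting point raised past a set limit in the mean and every replicate; inconclusive = no clear call; three in four hits are not shown here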
Target sequence (Q9HCT0 whole entry, looked up): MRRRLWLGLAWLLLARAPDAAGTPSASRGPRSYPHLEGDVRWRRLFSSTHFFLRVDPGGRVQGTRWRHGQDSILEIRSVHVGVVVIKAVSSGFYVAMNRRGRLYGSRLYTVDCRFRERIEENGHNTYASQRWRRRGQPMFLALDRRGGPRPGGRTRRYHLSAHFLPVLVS
rRNA inh HTS OD600: also measured in rRNA inh HTS; calls as there; OD600 change, %; measured here: OD600 growth;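 optical density of the mix in the first replicate; 0 = DMSO median and -100 = no signal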
rRNA inh HTS RFP: recorded beside rRNA inh HTS, whose call it bears; RFP signal change, %; measured here: RFP humanized mutant strains;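 first replicate; 0 = DMSO median and -100 = no signal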
Starred values were filed as active, the others as inactive; i = inactive; ? = inconclusive; . = no result given. Not all compounds are listed; count on the stated rates, not on these rows.

No.	canonical_smiles	ALR H2O2 inh	Beta apoptosis	T cruzi inh	Calb FLC	rRNA inh HTS	rRNA inh HTS OD600	rRNA inh HTS RFP	AF4-AF9 inh	RanGTP-Imp inh	FGF22 binding
1	CC(O)C(NC=C1C(=O)OC(C)(C)OC1=O)C(=O)O (stereo not given)	-6	.	-6	2	12	12	2.4	1.1	-4.2	i
2	CCCCCCCCCCOC(=O)Cn1c(COc2ccc(Cl)cc2)[n+](C)c2ccccc21	-21	122*	48	?	-34	-36	29	42*	9.1	i
3	CSc1ccc(C=O)cc1	-6	-8	.	.	3	1	-0.2	.	.	i
4	Cn1c(N)c(C(=O)COC(=O)CSc2ccc3ccccc3c2)c(=O)n(C)c1=O	73	0	-14	1	-20	-22	2.1	-4.6	-3.5	.
5	COCCNC(=O)CCCn1c(=O)c2cc(OC)c(OC)cc2n(CC(=O)Nc2ccccc2OC)c1=O	.	-14	-4	-3	5	15	10	-22	1.0	i
6	O=C(COC(=O)CCCOc1ccc(Cl)cc1Cl)NCc1ccc(F)cc1	-1	-6	-4	8	.	.	.	.	-1.8	.
7	CC(CNC(=O)CCn1c(=O)c2cccn2c2ccc(F)cc21)c1ccccc1 (stereo not given)	0	7	12	-12	11	8	4.3	0.9	0.9	i
8	O=C(CSc1nnc(-c2ccc3c(c2)OCO3)o1)Nc1ncc(Cl)cc1Cl	-2	28	10	-6	-22	-18	0.0	-2.8	1.0	i
9	CC(Oc1ccccc1)C(=O)NNC(=O)c1cccs1 (stereo not given)	-4	-4	-13	-17	13	14	0.3	-0.4	1.2	i
10	Cc1ccc(NC(=O)c2sc3ccccc3c2Cl)nc1	-17	-2	-6	-10	6	-1	-2.9	-32	-5.4	i
11	O=S(=O)(NC1CCCCCCC1)c1ccc(F)cc1	-13	.	-1	-11	-27	-37	-0.7	1.9	2.6	i
12	CC(C)OCc1ccc(C(=O)N2CCN(S(=O)(=O)c3ccc(Br)s3)CC2)cc1	3	-3	.	.	-4	-14	-0.1	3.6	.	i
13	COc1ccc(C)cc1NC(=O)C1CCCN(S(=O)(=O)c2cccnc2)C1 (stereo not given)	-6	-8	5	11	3	8	-0.5	-0.6	1.0	i
14	CCCS(=O)(=O)N1CCCC(C(=O)NC(C)c2ccc3c(c2)OCCO3)C1 (stereo not given)	3	0	13	.	.	.	.	.	2.0	.
15	CCc1ccccc1NC(=O)C1CCN(C(=O)N2CCOc3ccccc32)CC1	8	6	-5	1	0	-10	-1.8	-0.7	?	i

As entered above:
CC(O)C(NC=C1C(=O)OC(C)(C)OC1=O)C(=O)O (stereo not given) in rRNA inh HTS RFP is entered as 2.4
O=S(=O)(NC1CCCCCCC1)c1ccc(F)cc1 in rRNA inh HTS is entered as -27
CC(C)OCc1ccc(C(=O)N2CCN(S(=O)(=O)c3ccc(Br)s3)CC2)cc1 in rRNA inh HTS RFP is entered as -0.1
CC(Oc1ccccc1)C(=O)NNC(=O)c1cccs1 (stereo not given) in Beta apoptosis is entered as -4

(continued)
No.	canonical_smiles	ALR H2O2 inh	Beta apoptosis	T cruzi inh	Calb FLC	rRNA inh HTS	rRNA inh HTS OD600	rRNA inh HTS RFP	AF4-AF9 inh	RanGTP-Imp inh	FGF22 binding
16	CC1C(=O)N2CCCc3cc(S(=O)(=O)N4CCN(c5ccc(F)cc5)CC4)cc1c32 (stereo not given)	-1	-4	10	1	0	7	4.2	3.1	-0.5	i
17	COc1ccc(NC(=O)CSc2nnc(C3CCCCC3)n2N)c(OC)c1	-13	0	-6	-2	7	10	-0.1	-4.0	-2.7	i
18	CCOc1ccc(C(C)NC(=O)Nc2ccc(F)cc2F)cc1 (stereo not given)	-8	-6	-3	-4	5	5	-1.1	-1.6	-1.8	i
19	Clc1ccccc1OCCCn1ccnc1	-2	-4	1	-1	15	3	4.1	-1.3	-1.3	i
20	Cc1cc(C)c(S(=O)(=O)c2ccccc2Cl)c(Cl)n1	-12	-4	55*	-4	-13	-17	-2.1	0.8	1.0	i
21	Cc1sc2ncnc(OCC(=O)NC(C)C(C)C)c2c1C (stereo not given)	-9	-1	0	-2	14	11	1.0	-0.9	-6.0	i
22	O=C(NCc1ccc2c(c1)OCO2)c1ccc(CS(=O)(=O)c2ccc(Br)cc2)o1	-5	0	17	-3	-7	-7	-1.5	2.6	2.7	i
23	O=C(N/N=C/c1ccccc1O)C1(O)c2ccccc2-c2ccccc21	16	34	-7	-38	.	.	.	.	-0.7	.
24	CN(c1ccccc1)S(=O)(=O)c1ccc(C(=O)OCC(=O)N2CCOCC2)cc1	-11	0	-10	-8	.	.	.	.	-2.9	.
25	COc1ccc(NC(C)=O)cc1S(=O)(=O)Nc1ccc(OCc2ccccc2)cc1	.	-7	-1	10	-26	-59	-6.9	1.3	7.4	i
26	O=C(CN(C(=O)c1csnn1)c1ccc(F)c(Cl)c1)NCc1ccc(F)cc1	10	2	-6	5	2	12	0.2	-1.6	0.2	i
27	O=C1N(Cc2ccc3c(c2)OCO3)c2ccccc2C1(O)c1c[nH]c2ccccc12 (stereo not given)	-1	-3	8	16	.	.	.	.	-6.2	.
28	Cc1cccc(C(=O)NNC(=O)c2ccc(NC(=O)C(C)(C)C)cc2)c1	-16	-1	-11	-7	12	10	9.0	-3.5	-0.7	i
29	C#CCNC(=O)C1=C[C@H](c2cn(C(C)=O)c3ccccc23)[C@@H](CCCO)[C@H](OCC)O1	-7	-1	3	9	0	-2	-10	-2.5	5.0	i
30	O=C(NC(=S)N(CCCCO)C1CCCCC1)c1sc2ccccc2c1Cl	5	10	22	-9	.	.	.	.	-1.1	.

Complete entries, quoted from the list:
Entry for `O=C(NCc1ccc2c(c1)OCO2)c1ccc(CS(=O)(=O)c2ccc(Br)cc2)o1` → ALR H2O2 inh: -5; Beta apoptosis: 0; T cruzi inh: 17; Calb FLC: -3; rRNA inh HTS: -7; rRNA inh HTS OD600: -7; rRNA inh HTS RFP: -1.5; AF4-AF9 inh: 2.6; RanGTP-Imp inh: 2.7; FGF22 binding: i
Entry for `Cc1cccc(C(=O)NNC(=O)c2ccc(NC(=O)C(C)(C)C)cc2)c1` → ALR H2O2 inh: -16; Beta apoptosis: -1; T cruzi inh: -11; Calb FLC: -7; rRNA inh HTS: 12; rRNA inh HTS OD600: 10; rRNA inh HTS RFP: 9.0; AF4-AF9 inh: -3.5; RanGTP-Imp inh: -0.7; FGF22 binding: i

Next records
No.	canonical_smiles	ALR H2O2 inh	Beta apoptosis	T cruzi inh	Calb FLC	rRNA inh HTS	rRNA inh HTS OD600	rRNA inh HTS RFP	AF4-AF9 inh	RanGTP-Imp inh	FGF22 binding
31	CC1CCN(S(=O)(=O)c2ccc3c(c2)N(CC(=O)NCc2cccnc2)C(=O)CS3)CC1	-5	2	-4	-7	2	4	-1.2	4.1	-1.1	i
32	CC1CC(C)CN(C(=O)Cn2c(=O)c3cccn3c3cccnc32)C1 (stereo not given)	-3	-7	44	2	-6	-6	0.9	0.6	4.0	i
33	CCN(C[C@H]1N[C@@](CC)(C(=O)OC)[C@H]2C(=O)N(C)C(=O)[C@@H]12)S(=O)(=O)c1ccc(OC(F)(F)F)cc1	.	-4	.	.	-5	4	-0.9	?	.	i
34	CCc1ccc(CN(C)C(=O)c2cc(COc3c(F)cccc3F)on2)cc1	-4	-8	25	5	-25	-30	-6.6	1.3	0.9	i
35	COc1ccc2nc3sc(C(=O)N4CCN(C)CC4)cc3cc2c1	-10	-8	24	-16	.	.	.	.	1.0	.
36	O=C(CSc1cccc[n+]1[O-])Nc1ccccc1Oc1ccccc1	-1	7	82*	?	-23	-35	-25	-4.8	-3.4	i
37	Cc1cccc(C)c1NC(=S)N(Cc1ccccc1)Cc1cccs1	0	6	15	-2	-21*	-17*	0.8*	-1.0	6.2	i
38	O=C(COC(=O)Cn1cnc2ccccc2c1=O)NCc1ccccc1Cl	10	-1	-3	7	2	4	3.0	-0.5	2.9	i
39	NC(=O)c1cc(-c2ccccc2)nc2ccc(Br)cc12	-8	-1	-5	4	3	2	1.5	-2.4	-1.9	i
40	CCOC(=O)n1n[n+]([O-])c2ccccc21	0	3	-7	-2	.	.	.	.	-1.1	.
41	CC(O)c1ccc2c(c1)OCCOCCN(C)CCOCCO2 (stereo not given)	2	-7	5	-5	.	.	.	.	-0.2	.
42	CCOc1ccccc1Nc1ncccc1C(=O)O	.	3	-9	10	.	.	.	.	-7.5	.
43	O=C(CSc1nc(-c2ccccc2Cl)ns1)Nc1ccc2c(c1)OCO2	-6	.	1	-13	2	-2	-4.3	-3.6	-0.2	i
44	COc1ccc(CN(CC(=O)NCc2ccc(F)cc2)C(=O)c2ccco2)cc1	0	-1	0	-5	-3	0	1.1	1.7	1.3	i
45	Cc1ccc(NS(=O)(=O)c2cc3c(cc2C)NC(=O)CO3)cc1	.	-3	-3	-8	-1	-1	2.7	2.6	1.1	i
46	NC(=O)c1ccsc1NC(=O)COC(=O)CSc1ccc(Cl)cc1	12	-3	-4	10	-21*	-6.2*	-0.2*	-1.0	1.3	i
47	Cc1ccc(SCc2nn(C)c(Cl)c2C=O)cc1	-15	-37	-8	-3	-9	-7	4.1	-0.4	1.2	i
48	O=C(N/N=C/c1ccccc1C(=O)O)C(=O)N1CCCCC1	-1	-6	6	-7	1	-2	-0.9	-0.8	1.3	i
49	O=S(=O)(Nc1ccc(Cl)c(Cl)c1)N1CCOCC1	13	3	-10	2	-8	-11	0.4	-0.7	1.5	i
50	CC(C)(C)c1ccc(NC(=S)NCCc2ccccn2)cc1	98*	-2	-13	6	-41*	-28*	-5.8*	.	2.0	i
51	Cc1ccc(OCC(=O)O/N=C(\N)Cc2cccs2)cc1C	-27	-5	2	-17	.	.	.	.	-5.5	.
52	COc1ccc2c(C(=O)NCc3ccc4c(c3)OCO4)c(-c3ccc(S(C)(=O)=O)cc3)sc2c1	-3	?	.	.	20	21	0.0	-1.3	.	i
53	CN(C)/C=C(/C(=O)c1ccc(Cl)cc1Cl)S(=O)(=O)c1ccccc1	0	-3	-7	?	.	.	.	.	-2.6	.
